BJeLR lethal: BJeLR cell viability loss | BJeLR (HRASV12) viability, CellTiter-Glo ATP luminescence, 48 h; reference of the scale not given here | AID 1554 | inhibition, % (concentration not given with the values) | 300,000 tested, 0.17% active;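 active = replicate mean above 50%; inconclusive = above 50% but judged a plate artefact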;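 also: 50 nL library stock added to about 25 µL; numbers are from one replicate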
Autofluor counter: compound fluorescence in toxin protease inhibitor counterscreen | 360,000 tested, 3.1% active | fluorescence intensity (test concentration not listed) | compound autofluorescence counterscreen, microsphere flow cytometry; hits give high values;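 active = at least 3 SD above the mean of all compounds, about 16000 in these data; inconclusive = too few beads counted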;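 also: 100 nL of 1 mM stock went into each well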
PrP UTR inh: inhibition of PrP 5' UTR reporter expression; cell-based PrP 5' UTR mRNA reporter, plate reader; inhibition, % (concentration not given with the values); 340,000 tested, 0.35% active;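 active = every replicate at 50% or more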;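 also: 0 = median of the neutral control wells; tested in H4 reporter cells; numbers are from one replicate; inactives centre near -14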
Sa ugtP lethal: compounds lethal to S. aureus RN4220 ugtP deletion mutant. OD600 growth, 16 h; some inactives read as strong as hits. growth inhibition, % (no concentration beside the values). 330,000 tested, 0.54% active;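 active = z-score under -3 and OD600 up to 0.15 on both plates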;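 also: plate controls were untreated wells for no effect and antibiotic for full effect; wells of about 80 µL received 100 nL stock; the first replicate is given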
RN4220 kill: S. aureus RN4220 growth inhibition; OD600, 16 h; inhibition, % (concentration not given with the values); 330,000 tested, 0.33% active; AID 1259311;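 active = z-score of -3 or lower and OD600 up to 0.18 on both plates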;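 also: plate controls were untreated cells for no effect and reference antibiotic for full effect; stock transfer was 100 nL into about 80 µL; one replicate is shown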
Mtb hypoxia rep: reduces hypoxia-regulated biosensor signal in M. tuberculosis; M. tuberculosis hypoxia-regulated fluorescent reporter, fluorescence; fluorescence inhibition, % (concentration not given with the values); 300,000 tested, 0.1% active;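 active = 35 to 45% if threefold the growth effect, above 45% if 1.5-fold the growth effect; inactive = the rest, general growth blockers included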;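 also: wells of about 50 µL received 100 nL stock; 0% = vehicle wells and 100% = reference inhibitor wells; whole bacteria with a GFP reporter of the hypoxia response; strong numbers were not always called active; many hits fall short of the cut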
Mtb hypoxia rep growth: recorded beside Mtb hypoxia rep, whose call it bears; growth inhibition, %; measured here: M. tuberculosis growth (absorbance);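 0% = vehicle and 100% = reference antibiotic; read after six days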
Starred values were filed as active, the others as inactive; ? = inconclusive; · = no result given.

item	SMILES	BJeLR lethal	Autofluor counter	PrP UTR inh	Sa ugtP lethal	RN4220 kill	Mtb hypoxia rep	Mtb hypoxia rep growth
1	Cc1ccc(C2C(C#N)=C(N)Oc3c2oc(CO)cc3=O)o1 (configuration not stated)	-3	9298	-15	3	0.0	6	8
2	O=C(c1ccc(Cl)c([N+](=O)[O-])c1)N(Cc1ccccc1)C1CCS(=O)(=O)C1 (configuration not stated)	-11	10124	-10	10	2.0	-4	3
3	Cc1ccc(S(=O)(=O)N2CCOCC2)cc1NC(=O)CNCC1CCCCC1	-1	4246	-13	3	-0.3	2	3
4	COc1ccc(C=NC(CO)C(O)c2ccc([N+](=O)[O-])cc2)cc1 (configuration not stated)	-5	4864	-19	0	0.3	·	·
5	COc1cc(OC)c(/C=N/NC(=O)Cn2nc([N+](=O)[O-])cc2C)c(OC)c1	1	3463	3	·	·	·	·
6	COc1ccc(-c2cc(C(=O)OC(C)C(=O)Nc3c(C)n(C)n(-c4ccccc4)c3=O)c3ccccc3n2)cc1 (configuration not stated)	-7	2078	-44	-3	-3.1	-7	9
7	O=c1c2c(nc3nc(CCc4ccccc4)[nH]n13)CCC2	·	4699	-11	6	-3.6	·	·
8	O=C(/C=C/c1ccco1)Nc1ccc(Oc2ccccc2)cc1	66*	2404	-110	-7	-5.2	·	·
9	COc1ccc(S(=O)(=O)N(C)CC(=O)Nc2ccc(C)cc2)cc1OC	0	3520	0	1	6.6	-2	-3
10	Cc1ccc(C(=O)CSc2cc(C)[nH]c(=O)n2)cc1	-3	·	-61	7	-0.1	5	3
11	O=C(NCC(=O)N1CCN(c2ccccc2O)CC1)C1CCCCC1	4	?	-24	7	4.4	6	5
12	O=C(N1CCCC1)n1c(Cc2ccccc2)nc2ccccc21	-5	2918	-11	11	10	3	4
13	N#Cc1nnn(-c2cc(Cl)cc(Cl)c2)c1N	-4	6571	-14	4	5.7	11	4
14	Cc1[nH]n(-c2ccc(Cl)cc2)c(=O)c1/C=N/n1c(C)nc2ccccc2c1=O	4	3369	-11	·	·	·	·
15	Cc1cccc(C)c1NC(=O)c1c(O)c2ccccc2[nH]c1=O	-15	3540	-21	-35	-0.5	-5	5
16	CCOc1cc(C(=S)N2CCOCC2)ccc1OC	-3	10087	-12	4	4.2	8	13
17	Cc1csc(=NN=Cc2ccc(O)cc2)n1Cc1ccco1	·	·	·	-2	3.9	1	1
18	Cc1oc(C=NNC(=O)CN(c2ccccc2Br)S(C)(=O)=O)cc1Br	·	·	·	5	2.0	12	12
19	CC(=O)c1c(C)[nH]c(C(=O)COC(=O)c2c(C)noc2C)c1C	·	·	·	2	3.1	12	-1
20	COc1cccc(Oc2nc3ncn(Cc4ccccc4)c3c(=O)n2C)c1	-2	2395	-10	16	0.9	·	·
21	CCc1nc(N2CCCC(C)C2)c2oc3ccccc3c2n1 (configuration not stated)	3	9856	-49	-5	31	12	8
22	O=C(Nc1n[nH]c(=S)s1)c1ccco1	-6	5067	-22	14	9.2	3	7
23	CC(C)C(=O)NC(=S)Nc1ccc(S(=O)(=O)N(C)Cc2ccccc2)cc1	0	2734	-15	54	-1.2	·	·
24	CCN1CCN(S(=O)(=O)c2ccc(Cl)c(C(=O)N(C)Cc3cccs3)c2)CC1	·	3811	-6	2	3.3	3	2
25	Cc1ccc(OCC(=O)N(Cc2ccccc2)c2c(N)n(Cc3ccccc3)c(=O)[nH]c2=O)c(C)c1	-6	5868	-10	2	0.5	1	-8
26	COc1ccc(NC(=S)NNC(=O)c2ccco2)c(OC)c1	1	4729	-3	-3	1.7	-9	-11
27	Cn1c(C(C#N)=C2CCCCCN2)nc2ccccc21	·	·	·	-2	3.0	3	9
28	COC(=O)c1c(C)cc(OC(C)=O)c(C)c1OC(C)=O	-2	2728	-26	0	-5.9	19	4
29	Cc1cccc(NC(=S)NCCN2CCOCC2)c1C	-7	3233	-4	0	3.7	1	14
30	COc1ccccc1CNC(=O)c1ccc(OCc2c(C)noc2C)c(OC)c1	5	5419	-11	4	-2.3	·	·

Single records (already shown).
`O=C(Nc1n[nH]c(=S)s1)c1ccco1` as listed: BJeLR lethal = -6; Autofluor counter = 5067; PrP UTR inh = -22; Sa ugtP lethal = 14; RN4220 kill = 9.2; Mtb hypoxia rep = 3; Mtb hypoxia rep growth = 7
`Cc1cccc(C)c1NC(=O)c1c(O)c2ccccc2[nH]c1=O` as listed: BJeLR lethal = -15; Autofluor counter = 3540; PrP UTR inh = -21; Sa ugtP lethal = -35; RN4220 kill = -0.5; Mtb hypoxia rep = -5; Mtb hypoxia rep growth = 5

Following part:
item	SMILES	BJeLR lethal	Autofluor counter	PrP UTR inh	Sa ugtP lethal	RN4220 kill	Mtb hypoxia rep	Mtb hypoxia rep growth
31	O=C(NCc1cccc(Cl)c1)c1ccc2c(c1)OCO2	-10	21016*	-13	4	12	·	·
32	CCCN1CCc2cc(O)cc3c2[C@H]1Cc1ccc(O)c(O)c1-3	4	4661	-22	·	·	·	·
33	N#CCC(=O)Nc1sc2c(c1C(N)=O)CCCC2	3	6136	-13	4	5.3	6	8
34	Cc1ccc(Nc2nc(OC(C(F)(F)F)C(F)(F)F)nc(N3CCOCC3)n2)cc1	1	3120	-15	1	6.4	·	·
35	O=C(COC(=O)c1ccc(O)cc1)Nc1ccc2[nH]c(=O)[nH]c2c1	1	4657	-6	-9	1.0	-1	3
36	Cc1ccccc1NS(=O)(=O)c1cc(C(=O)Nc2cccc([N+](=O)[O-])c2)ccc1C	-6	2103	-7	-10	0.1	8	4
37	Nn1c(SCC(=O)Nc2ccc(F)cc2)nnc1C1CCCCC1	-4	21577*	-25	1	5.5	1	1
38	O=C(NCc1ccco1)c1ccc(Br)s1	-3	11553	-27	5	4.8	·	·
39	CC(=O)NS(=O)(=O)c1ccc(NC(=O)c2ccccc2F)cc1	4	23846*	-15	10	2.7	1	4

Ordered by heavy-atom count (ascending): part of the list above.
item	SMILES	BJeLR lethal	Autofluor counter	PrP UTR inh	Sa ugtP lethal	RN4220 kill	Mtb hypoxia rep	Mtb hypoxia rep growth
38	O=C(NCc1ccco1)c1ccc(Br)s1	-3	11553	-27	5	4.8	·	·
33	N#CCC(=O)Nc1sc2c(c1C(N)=O)CCCC2	3	6136	-13	4	5.3	6	8
31	O=C(NCc1cccc(Cl)c1)c1ccc2c(c1)OCO2	-10	21016*	-13	4	12	·	·
32	CCCN1CCc2cc(O)cc3c2[C@H]1Cc1ccc(O)c(O)c1-3	4	4661	-22	·	·	·	·
35	O=C(COC(=O)c1ccc(O)cc1)Nc1ccc2[nH]c(=O)[nH]c2c1	1	4657	-6	-9	1.0	-1	3
30	COc1ccccc1CNC(=O)c1ccc(OCc2c(C)noc2C)c(OC)c1	5	5419	-11	4	-2.3	·	·
36	Cc1ccccc1NS(=O)(=O)c1cc(C(=O)Nc2cccc([N+](=O)[O-])c2)ccc1C	-6	2103	-7	-10	0.1	8	4

Source: PubChem
